ClpP mod = qHTS Assay for Activators of ClpP; ATP-dependent Clp protease proteolytic subunit (Bacillus subtilis (strain 168)), P80244; 340,000 compounds, 1.9% hits; Potency, µM (series often up to 57.5 µM), without a hit: at the highest dose activity change, negative = active; purified B. subtilis ClpP, FRET peptide cleavage, 20 min; AID 651965, 2013; active = well fitted falling curve with a large enough effect; inconclusive = small, poorly fitted or top-dose-only effect; inactive = no such curve, though single readings can be large or run the other way; note: potency is the fitted concentration of half-maximal effect; the source files actives as falling curves though it sought activators and does not explain the sign; nearly all actives have a fitted effect of over 65% in size; many hits overshoot -100%
Target sequence (P80244 whole entry, looked up): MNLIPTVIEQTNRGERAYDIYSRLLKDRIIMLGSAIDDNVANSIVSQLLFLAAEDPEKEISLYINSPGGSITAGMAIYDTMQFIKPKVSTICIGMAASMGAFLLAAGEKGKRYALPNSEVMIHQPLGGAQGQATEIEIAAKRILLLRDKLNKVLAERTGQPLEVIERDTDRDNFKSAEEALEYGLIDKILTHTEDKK
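FRET quenching reversal measured ClpP activation: 10 microg/mL B. subtilis ClpP at pH 8 with the FRET-FV decapeptide, read at 430 nm after 320 nm excitation. The 20-min minus 0-min signal was scaled between DMSO/no-enzyme wells and ADEP (5.8 microM final).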
TRPML1 ag = agonists of human TRPML1 channel; Q9GZU1; TRPML1-expressing cells, Ca2+ dye fluorescence, FDSS; host cell line not named in the record; reference of the full effect not given here; activation, % (no concentration beside the values); 410,000 compounds, 0.12% hits; AID 624414; in the data active = activation above about 50%; inconclusive = about 30% to 50%; inactive = below about 30%; note: 0% is about no effect; the text of the record puts the active cut at 80%
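Tetracycline-induced TRPML1-DL cells are seeded and incubated overnight before loading with a no-wash Ca2+ dye and quencher. Agonist activity is taken from the 110 s fluorescence read following compound pin-transfer on an FDSS, before EC80 54-4 challenge.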
TRPV1 PAM = human TRPV1 potentiation. Q8NER1. 320,000 compounds, 0.02% hits. TRPV1-expressing cells, Fluo-8 calcium influx, capsaicin EC20 potentiation; host cell line not named in the record; control for the full effect not named in the record. potentiation, % at 8.33 µM; active means potentiation above 80%; inconclusive means 30% to 80%; inactive means below 30%; note: 0% is about no effect
Target sequence (Q8NER1 whole entry, looked up): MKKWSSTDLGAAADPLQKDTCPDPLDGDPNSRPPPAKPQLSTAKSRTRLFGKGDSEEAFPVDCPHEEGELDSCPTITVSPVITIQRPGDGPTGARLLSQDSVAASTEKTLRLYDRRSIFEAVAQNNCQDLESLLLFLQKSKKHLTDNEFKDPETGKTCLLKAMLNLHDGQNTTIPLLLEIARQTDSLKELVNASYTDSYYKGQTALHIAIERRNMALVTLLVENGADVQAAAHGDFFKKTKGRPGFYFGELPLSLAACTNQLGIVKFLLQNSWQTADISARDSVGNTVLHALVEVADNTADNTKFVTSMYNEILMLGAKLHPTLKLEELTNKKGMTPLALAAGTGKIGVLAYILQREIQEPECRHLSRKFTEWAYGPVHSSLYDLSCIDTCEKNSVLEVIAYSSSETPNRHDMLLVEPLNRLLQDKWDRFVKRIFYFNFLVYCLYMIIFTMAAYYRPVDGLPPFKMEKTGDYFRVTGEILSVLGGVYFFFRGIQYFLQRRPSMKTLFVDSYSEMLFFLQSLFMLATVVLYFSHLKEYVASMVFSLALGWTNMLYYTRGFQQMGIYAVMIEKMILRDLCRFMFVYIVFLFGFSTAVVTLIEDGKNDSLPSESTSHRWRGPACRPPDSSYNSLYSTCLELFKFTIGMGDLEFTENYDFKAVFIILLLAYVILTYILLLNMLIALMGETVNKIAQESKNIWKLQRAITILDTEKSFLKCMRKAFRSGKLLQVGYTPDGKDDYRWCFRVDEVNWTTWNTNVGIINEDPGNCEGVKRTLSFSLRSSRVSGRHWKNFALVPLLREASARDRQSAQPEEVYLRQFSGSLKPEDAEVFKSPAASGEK
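TRPV1-expressing cells were cultured overnight at 35.5C and loaded with Fluo-8 calcium dye for 40 to 90 min at room temperature. After a 10 s baseline, compound was added and calcium influx was read kinetically for 3 min (ex 480/em 520 nm).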
TRPML1 blocker = human mucolipin-1 channel inhibition | 390,000 compounds, 0.02% hits | TRPML1-inducible cells, Ca2+ dye fluorescence, FDSS; active compounds read low; inhibition of EC80 agonist-evoked calcium signal | activity change, negative = inhibition, % (no concentration beside the values); in the data active means activity change below about -50%; inconclusive means about -30% to -50%; inactive means above about -30%;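 note: stimulus is agonist 54-4 at its EC80 concentration; % is set by controls: 0 for no effect and ±100 for the full control effect; compound concentration not given in the record; the text of the record puts the active cut at -80%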
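Calcium fluorescence in TRPML1-DL cells induced overnight with Tet: a 110 s read after compound pin addition, then a 110 s antagonist read after challenge with 54-4 at 4 uM final (EC80).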
Sfp inh = Sfp phosphopantetheinyl transferase inhibition; Q9F4F7; Biochemical Sfp PPTase activity, qHTS; Potency, µM, without a hit: max response, negative = inhibition, actives largely listed as inhibitors; 310,000 compounds, 3.5% hits; active = well fitted inhibition curve with a large enough effect; inconclusive = small, poorly fitted or top-dose-only effect, or another doubt; inactive = no such curve, though single readings can be large or run the other way;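 note: the enzyme is Sfp with the accession as filed and its product quenches rhodamine fluorescence; potency is the fitted concentration of half-maximal effect; 0% = enzyme reaction without inhibitor and -100% = no enzyme wells; top concentration of the series not given in the record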
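Compounds were incubated with enzyme (final 15 nM) for 15 min at room temperature before substrate addition started the reaction. Fluorescence at 525 nm excitation, 598 nm emission was recorded immediately and after 30 minutes.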
PINK1 expr mod = PINK1 expression modulation; PINK1 immunofluorescence, high-content cytometry, 24 h; Potency, µM (doses to about 76.6 µM), without a hit: at the highest dose activation (PINK1 increase), hits mostly activators; 410,000 compounds, 0.2% hits; AID 624263; active = well fitted activation curve with a large enough effect; inconclusive = small, poorly fitted or top-dose-only effect; inactive = flat fitted curve, though single readings scatter; cell line not stated here;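 note: potency is the fitted concentration of half-maximal effect; % of control where 0% means no effect; nearly all actives have a fitted effect of over 65% in size; a mitochondrial uncoupler was the plate control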
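PINK1 protein level read as immunofluorescence by microplate cytometer in a fixed, stained stable cell line after 24 h exposure to five compound concentrations, with CCCP as control.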
Menin-MLL FL inh = inhibitors of human menin-MLL interaction, wild-type MLL peptide. FP activity change, % at 61.4 µM. 290,000 tested, under 10 active. Fluorescence polarization, fluorescein-MLL peptide displacement from menin; inconclusive = falling polarisation curve, or a change in total fluorescence; inactive = total fluorescence flat and polarisation flat or rising; no compound was filed as active; the % refers to the polarisation; negative = inhibition;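 note: % of control where 0% means no effect; inhibitors lower the polarisation; unlabelled MLL peptide was the positive control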
Numbers without * were called inactive; ? = inconclusive; nt = not tested or not shown; [ ] = remark or other dose. Not a hit list. Share with any hit: about 4.4%.

SMILES	ClpP mod	TRPML1 ag	TRPV1 PAM	TRPML1 blocker	Sfp inh	PINK1 expr mod	Menin-MLL FL inh
CCOC(=O)c1ccc(NC(=O)CC2C(=O)N(c3cccc(OC)c3)C(=O)N2Cc2cccnc2)cc1 (configuration not stated)	0.5%	-0.9	nt	-5	nt	0.2%	nt
Nc1ncc(S(=O)(=O)N2CCN(c3ccccc3)CC2)cn1	-1.2%	0.6	nt	11	nt	-0.4%	nt
Cc1cccc(C)c1NC(=O)COn1nnc2ccc(C(F)(F)F)cc21	nt	0.4	7	-10	31%	1.2%	0.0
O=S(=O)(c1cc(Cl)sc1Cl)N1CCCC1	-0.7%	-1.1	-11	0	7%	1.4%	-1.9
Cc1ccccc1CCNC(=O)C1CC(O)CN1C(=O)Nc1ccccc1 (configuration not stated)	nt	-0.4	-4	-3	6%	0.9%	-1.2
CCOc1ccc(-c2c(=O)n(OCc3nc4ccccc4[nH]3)c3ccccc3[n+]2[O-])cc1	nt	1.7	-16	-1	-5%	0.3%	3.2
Cc1nc2ccccc2nc(C)c1=NOCc1cccc(Cl)c1	0.7%	0.8	0	-9	-9%	2.1%	0.9
CCOC(=O)/C=c1\s/c(=C\c2c(OCC)ccc3ccccc23)c(=O)n1CC(=O)NCC1CCCO1 (configuration not stated)	-5.3%	2.9	-3	7	8%	1.1%	1.9
COc1ccc(CN2CCn3ncc(C(=O)Nc4ccccc4)c3C2=O)cc1	-0.7%	0.2	-13	-10	4%	13%	1.0
COc1ccc(OCCN2C(=O)NC3(CCc4ccccc4C3)C2=O)cc1 (configuration not stated)	0.8%	0.5	7	-6	-3%	-2.2%	0.1
CCN1CCCC1CNS(=O)(=O)c1ccc(Br)cc1 (configuration not stated)	-0.5%	nt	-7	nt	2%	-0.1%	-15
CCc1ccc(N2CC(C(=O)Nc3nc4ccc(S(C)(=O)=O)cc4s3)CC2=O)cc1 (configuration not stated)	nt	0.7	-9	?	-22%	-1.6%	0.4
COCCNC(=S)N/N=C(\C)c1ccccc1O	?	1.3	-9	-8	-3%	-0.7%	nt
COc1ccc(CN(C)C(=O)CCC(=O)N2CCN(S(=O)(=O)c3ccc(Cl)cc3)CC2)c(OC)c1	-0.4%	0.6	nt	-5	nt	0.0%	nt
CN(CC(=O)Nc1cc(C(F)(F)F)ccc1-n1cncn1)Cc1ccccc1N1CCOCC1	0.3%	4.4	nt	17	nt	1.9%	nt
O=C(Cn1ccc(C(F)(F)F)n1)N=Nc1c(O)[nH]c2ccccc12	nt	0.7	-4	4	-8%	1.2%	-3.1
CCN(CC)CCOC(=O)c1cccc(Br)c1	0.1%	0.6	-14	12	17%	-0.2%	-5.4
O=C(N/N=C/c1ccc([N+](=O)[O-])cc1)c1cc(C2CC2)[nH]n1	0.4%	-0.1	-12	-7	13%	4.0%	nt
Cn1cc(C=O)c2cc(S(=O)(=O)N3CCOCC3)ccc21	0.0%	-0.9	0	-11	-4%	1.2%	3.3
CCOC(=O)c1c(C)c(C(=O)N2CCN(c3cccc(Cl)c3)CC2)c(C)n1C	-2.9%	1.8	-5	-6	-5%	-1.3%[38.3 µM]	2.1
CCCN(CCC)C(=O)CSc1nnc2cc(C)c3cc(C)cc(C)c3n12	-17%	-0.1	nt	-19	nt	0.9%	nt
O=C(Nc1cccc(S(=O)(=O)N2CCCCC2)c1)c1cccs1	-1.3%	-0.9	-10	29	13%	0.4%	nt
Cc1ccc(S(=O)(=O)N(C)C[C@@H]2Oc3ccc(NS(C)(=O)=O)cc3CC(=O)N([C@H](C)CO)C[C@@H]2C)cc1	0.1%	-0.6	nt	-7	nt	-0.5%	nt
O=C(COc1ccccc1)NN1C(=O)CSC1=S	0.6%	-0.2	5	19	-8%	-0.3%	4.8
Nn1c(SCC(=O)Nc2ccc3c(c2)OCCO3)nnc1-c1cccnc1	1.5%	-0.3	-10	17	4%	0.6%	0.6
Cc1cccnc1C(NC(=O)C1CCN(CCCOc2ccccc2)CC1)c1ccc(F)cc1 (configuration not stated)	-2.7%	-0.4	nt	7	nt	-0.4%	nt
O=C(NC1CC1)c1sc2cc(F)ccc2c1Cl	-0.8%	-0.1	-8	4	nt	-0.2%	nt
O=C(CC12CC3CC(CC(C3)C1)C2)NCC(=O)N1CCCC1	-1.1%	0.1	-10	12	20%	1.8%	-0.3
O=C(NCc1ccco1)c1cc(-c2ccccc2)nn1CC1CC(c2cccc([N+](=O)[O-])c2)=NO1 (configuration not stated)	-1.5%	-1.2	nt	-18	nt	-1.3%	nt
CC(=O)N1CCN(C(=S)Nc2ccc(SC(F)F)cc2)CC1	nt	0.7	-8	44	16%	5.0%	-0.8
CCOC(=O)c1sc2nc(N3CCOCC3)c3c(c2c1N)CC(C)(C)N(C)C3	7.1µM*	0.5	12	18	11%	-1.1%	-1.4
CCN1CCc2c(sc(-n3cccc3)c2C(C)NC(=O)Nc2ccc(C(=O)OC)cc2)C1 (configuration not stated)	-23%	23	nt	11	nt	4.5%	nt
O=C(Cn1c(=O)n(-c2cccc(C(F)(F)F)c2)c(=O)c2sccc21)NCC1CCCO1 (configuration not stated)	-1.6%	-1.7	4	-7	11%	3.6%	2.8
NS(=O)(=O)c1ccc(Cc2ncc(C(F)(F)F)cc2Cl)s1	-1.4%	1.7	-6	2	11%	-1.6%	-0.5
COc1ccccc1CNC(=O)[C@@H]1CCCN1C(=O)C1CCN(S(=O)(=O)c2ccc(C)cc2)CC1	-2.3%	0.3	1	6	9%	3.9%	3.5
COc1ccc(NC(=O)CN(C)S(=O)(=O)c2ccc3nc(C)sc3c2)cc1Cl	-3.6%	2.8	nt	-21	nt	-0.4%	nt
c1ccc(COc2ccc(OCCOCCn3cncn3)cc2)cc1	-0.8%	0.3	-27	7	5%	0.4%	-0.2
O=C(Cn1[nH]c(=O)c2ccccc2c1=O)NCC1COc2ccccc2O1 (configuration not stated)	-2.9%	-0.1	2	-5	nt	-0.2%	nt
CC(C)(C)OC(=O)N1CCCC(C(=O)Nc2cccc(C(=O)NCCc3ccccc3)c2)C1 (configuration not stated)	0.6%	1.5	nt	-9	nt	-0.4%	nt
COc1ccc(N2CCN(C(C)C(=O)Nc3nnc(C)s3)CC2)cc1 (configuration not stated)	nt	2.1	8	-1	-16%	1.4%	0.6
COC(=O)c1ccc(NC(=O)c2cn(-c3cccc(C)n3)cn2)cc1	-22%	-0.4	-4	33	9%	6.3%	-0.6
C=CCn1c(Cc2cccs2)nnc1SCC(=O)Nc1cc(OC)cc(OC)c1	-0.3%	0.7	5	-1	0%	-1.8%	-1.2
CC1CCCCC12NC(=O)N(CC(=O)NCC(=O)Nc1ccc(F)c(F)c1F)C2=O (configuration not stated)	0.0%	0.2	-8	-8	nt	0.3%	nt
Cc1ccc(Oc2ncc(CN3CCOCC3)s2)cc1	-2.5%	-0.7	-11	19	14%	0.5%	5.3
Cc1ccc2c(c1)N(CC(=O)NCCCN1CCN(C)CC1)C(=O)CO2	1.0%	-0.8	-6	-6	-1%	-0.1%	nt
CCN1C(=O)/C(=C\c2nc3ccccc3c(=O)n2CC)c2ccccc21	nt	4.1	-21	1	-9%	0.7%	-2.6
O=C(Cn1cc(C(=O)c2ccco2)c2ccccc21)Nc1ccccc1F	nt	-0.1	18	37	8%	2.4%	1.4
CC(NC(=O)COC(=O)CNC(=O)c1ccc(-c2ccccc2)cc1)c1ccccc1 (configuration not stated)	nt	5.2	0	28	nt	0.9%	nt
c1cc(-c2ccc3c(c2)CCO3)n2cnnc2c1	4.2%	0.1	nt	8	nt	0.5%	nt
O=c1c2ccccc2n2c(-c3ccccc3O)nnc2n1Cc1ccc(F)cc1	-6.1%	-0.5	nt	4	nt	-1.3%	nt
Cc1nnc(Nc2ccc(Cl)cc2)s1	-2.6%	1.1	-17	-7	7%	-1.1%	0.8
CC1(C)C2CCC1(CS(=O)(=O)NC(CC(=O)O)c1cccc(Br)c1)C(=O)C2 (configuration not stated)	nt	-1.1	-16	4	22%	-0.4%	-0.1
O=C(Nc1cccc2ccccc12)c1cnn2c1NC(=C1CC1)C=C2C(F)F	-1.4%	-0.6	nt	nt	nt	-0.6%	nt
Cc1cc(C)nc(/N=C(\N)Nc2ccc(C(C)C)cc2)n1	nt	13	0	2	?	40µM*	-6.5
O=C(NN=C1CCC(c2ccccc2)CC1)c1cc2c(s1)CCCC2 (configuration not stated)	1.1%	-1.2	-1	-10	6%	14%	0.1
COc1ccc(Cn2cc(C(=O)c3ccc(C)cc3)c(=O)c3cc(OC)c(OC)cc32)cc1	-0.2%	0.7	nt	-15	nt	-1.8%	nt
CN(C)/C=C(/C(=O)c1ccc(Cl)cc1Cl)S(=O)(=O)c1ccc(Cl)cc1	1.5%	-0.5	24	1	19%	nt	3.6
COCCn1c(C)nc2oc3ccc(Br)cc3c(=O)c2c1=O	-1.6%	-0.7	nt	11	-3%	3.0%	13
Nn1cnnc1N/N=C/c1ccc(F)cc1	0.0%	nt	2	nt	56µM*	0.5%	-2.7
Cc1ccc(S(=O)(=O)c2nnn3c2nc(N2CCC(C(N)=O)CC2)c2ccccc23)cc1C	-3.3%	-0.7	-2	-6	4%	5.7%	2.2
O=C(NC1=NC2CCCCC2N1)c1ccccc1 (configuration not stated)	1.8%	-0.7	-16	10	16%	-1.7%	3.0
Cc1ccc(C(=O)N/C(=C/c2ccco2)C(=O)N2CCCCCC2)cc1	nt	1.2	-12	-11	-5%	-1.4%	-0.3
O=C(OCc1ccc2c(c1)OCO2)c1ccc(S(=O)(=O)N2CCCCC2)cc1	-3.3%	1.6	-10	2	3%	7.0%	4.6

Some of these compounds in order of molar mass, descending.
SMILES	ClpP mod	TRPML1 ag	TRPV1 PAM	TRPML1 blocker	Sfp inh	PINK1 expr mod	Menin-MLL FL inh
CN(C)/C=C(/C(=O)c1ccc(Cl)cc1Cl)S(=O)(=O)c1ccc(Cl)cc1	1.5%	-0.5	24	1	19%	nt	3.6
O=C(OCc1ccc2c(c1)OCO2)c1ccc(S(=O)(=O)N2CCCCC2)cc1	-3.3%	1.6	-10	2	3%	7.0%	4.6
COCCn1c(C)nc2oc3ccc(Br)cc3c(=O)c2c1=O	-1.6%	-0.7	nt	11	-3%	3.0%	13
Cc1cc(C)nc(/N=C(\N)Nc2ccc(C(C)C)cc2)n1	nt	13	0	2	?	40µM*	-6.5

Assay outcomes as filed in PubChem.
